D2 PAM: positive allosteric modulators of human D2 dopamine receptor | AID 624464 | 360,000 compounds, 0.23% hits | potentiation, % (concentration not given with the values) | DiscoveRx D2 beta-arrestin cells, luminescence, 90 min; 100% = 57 uM dopamine signal | P14416; active = potentiation of 50% or more; inconclusive = 30% to 50%; inactive = 30% or less;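 note: tested on top of an EC20 dose of dopamine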
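PathHunter D2 cells, attached overnight at 37 deg C, received compound in DMSO plus dopamine at EC20 (50 nM final) for 90 min at 37 deg C. Beta-arrestin recruitment was read as luminescence after 1 h with detection reagent at ambient temperature.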
Six1-Eya2 blk: Six1/Eya2 interaction inhibition; AlphaScreen GST-Six1/His-Eya2 binding, biochemical; stronger effect = lower value; control for the full effect not named in the record; AID 651725; 360,000 compounds, 0.56% hits; Q15475+O00167; activity change, % (concentration not given with the values); in the data active = activity change below about -65%; inconclusive = about -30% to -65%; inactive = above about -30%; note: % is set by controls: 0 for no effect and ±100 for the full control effect
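GST-Six1 + His-Eya2 (5X stock: 250/500 nM); Tris pH 8.0, 300 mM NaCl, 0.05% BSA, 0.02% Tween 20; GSH donor/Ni acceptor beads; 1 h 37 °C dark; AlphaScreen readout.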
TRPV1 potentiator: potentiators of human vanilloid receptor 1 (TRPV1). AID 540277. potentiation, % at 8.33 µM. TRPV1-expressing cells, Fluo-8 calcium influx, capsaicin EC20 potentiation; host cell line not named in the record; control for the full effect not named in the record. Q8NER1. 320,000 compounds, 0.02% hits; active means potentiation above 80%; inconclusive means 30% to 80%; inactive means below 30%; note: 0% is about no effect
Target sequence (Q8NER1 whole entry, looked up): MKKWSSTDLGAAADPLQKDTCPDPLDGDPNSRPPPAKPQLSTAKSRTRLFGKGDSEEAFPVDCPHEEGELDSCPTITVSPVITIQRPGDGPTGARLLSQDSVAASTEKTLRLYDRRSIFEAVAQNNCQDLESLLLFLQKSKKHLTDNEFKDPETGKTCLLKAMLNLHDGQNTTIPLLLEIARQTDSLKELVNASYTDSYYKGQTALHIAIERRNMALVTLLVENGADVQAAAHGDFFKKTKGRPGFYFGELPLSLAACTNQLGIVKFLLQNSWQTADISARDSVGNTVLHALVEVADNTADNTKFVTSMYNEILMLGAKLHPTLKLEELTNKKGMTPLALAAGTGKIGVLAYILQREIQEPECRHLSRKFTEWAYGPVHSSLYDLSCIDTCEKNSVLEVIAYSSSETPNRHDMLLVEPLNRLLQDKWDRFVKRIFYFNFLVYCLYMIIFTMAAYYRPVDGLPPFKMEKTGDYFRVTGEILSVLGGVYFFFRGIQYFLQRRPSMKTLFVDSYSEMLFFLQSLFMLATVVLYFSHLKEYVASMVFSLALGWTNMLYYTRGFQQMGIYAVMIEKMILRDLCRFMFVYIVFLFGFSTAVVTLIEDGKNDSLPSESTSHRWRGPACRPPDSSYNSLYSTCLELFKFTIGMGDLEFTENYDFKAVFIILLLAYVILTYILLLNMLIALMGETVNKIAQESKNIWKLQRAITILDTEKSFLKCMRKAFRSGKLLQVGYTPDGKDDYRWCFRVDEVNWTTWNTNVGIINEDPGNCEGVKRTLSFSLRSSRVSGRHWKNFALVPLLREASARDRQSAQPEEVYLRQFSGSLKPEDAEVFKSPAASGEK
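Fluo-8 calcium influx in TRPV1-expressing cells, kinetic read (ex 480/em 520 nm). Compound added and read 3 min for agonist activity, followed by capsaicin at EC20 final and 2 min further read for enhancement.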
TRPML1 agonist: human mucolipin-1 channel agonism | Q9GZU1 | TRPML1-expressing cells, Ca2+ dye fluorescence, FDSS; host cell line not named in the record; reference of the full effect not given here | activation, % (concentration not given with the values) | 410,000 compounds, 0.12% hits; in the data active = activation above about 50%; inconclusive = about 30% to 50%; inactive = below about 30%; note: 0% is about no effect; the text of the record puts the active cut at 80%
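Agonist activity was taken from a 110 s kinetic Ca2+ dye read on the FDSS after pinning compounds onto TRPML1-DL cells. The cells were seeded at 1,500/well with Tet inducer, incubated about 16 h, then dye-loaded at room temperature.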
TRPML1 blocker: inhibitors of human TRPML1 channel; TRPML1-inducible cells, Ca2+ dye fluorescence, FDSS; stronger effect = lower value; inhibition of EC80 agonist-evoked calcium signal; activity change, negative = inhibition, % (test concentration not listed); 390,000 compounds, 0.02% hits; in the data active means activity change below about -50%; inconclusive means about -30% to -50%; inactive means above about -30%;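 note: stimulus is agonist 54-4 at its EC80 concentration; % is set by controls: 0 for no effect and ±100 for the full control effect; compound concentration not given in the record; the text of the record puts the active cut at -80%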
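Tet-induced TRPML1-DL cells loaded with Ca8 no-wash calcium dye were read kinetically on FDSS. Compound addition was followed by EC80 agonist 54-4 (4 uM final); inhibition was read over 110 s.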
CtBP-E1A inh: blocks the CtBP interaction with E1A. AlphaScreen GST-E1A/His-CtBP binding, 1536-well; stronger effect = lower value; control for the full effect not named in the record. activity change, % (test concentration not listed). 340,000 compounds, 0.49% hits; in the data active means activity change below about -65%; inconclusive means about -30% to -65%; inactive means above about -30%; note: % is set by controls: 0 for no effect and ±100 for the full control effect
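AlphaScreen with 125 nM GST-E1A and 125 nM His-CtBP (5X stocks) in Tris pH 8.0, 300 mM NaCl, BSA, Tween 20, TCEP. Compounds preincubated 2 h at 37 deg C, then glutathione donor/nickel acceptor beads added for 1 h at 37 deg C in dark.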
Starred values were filed as active, the others as inactive; ? = inconclusive; · = no result given.

A first look (15 entries):
The line under a structure holds: D2 PAM	Six1-Eya2 blk	TRPV1 potentiator	TRPML1 agonist	TRPML1 blocker	CtBP-E1A inh
CC(=O)Nc1cccc(OC(=O)N2CCOCC2)c1
 : -1	9	1	-0.2	-8	9
O=C1COc2ccc(C(=O)COC(=O)c3ccc(S(=O)(=O)C(F)F)cc3)cc2N1
 : 1	-4	6	-0.3	6	4
CC1CCCCN1S(=O)(=O)c1ccc(C(=O)Nc2nnc(-c3ccco3)o2)cc1 (stereo not given)
 : -2	-26	6	0.1	9	-18
COc1cc(S(=O)(=O)NCC2OCCc3ccccc32)ccc1-n1cnnn1 (stereo not given)
 : 8	2	3	-0.3	-1	-2
COc1ccc(NC(=O)c2cn(-c3ccccc3)nc2SC)cc1
 : -11	-3	10	1.6	25	·
O=C(COC(=O)/C=C/c1ccc(Cl)cc1Cl)Nc1cc(C(F)(F)F)ccc1N1CCOCC1
 : -27	5	-1	-0.1	-6	7
CC(C)c1ccc(-c2nc3ccccc3s2)cc1
 : -4	8	-1	-0.7	-2	32
Cn1cccc1C(C#N)c1ncc(C(F)(F)F)cc1Cl (stereo not given)
 : -5	-3	23	0.4	1	-5
CC1CCc2c(sc3ncn(CC(=O)N4CCCCC4)c(=O)c23)C1 (stereo not given)
 : -4	-1	0	-0.3	0	·
CCN(CC)S(=O)(=O)c1cccc(-c2nnc(SCC(=O)NC3CCCCCC3)n2N)c1
 : -14	6	5	-0.8	5	5
CC1(C(=O)NCC2CC2)CCN1C(=O)C1(c2ccccc2)CC1 (stereo not given)
 : -5	4	·	-0.7	·	3
O=C(Nc1cccc(Cl)c1)N1CCN2C(=O)c3ccccc3C12c1ccccc1 (stereo not given)
 : -6	-4	-13	1.9	54	11
Cc1ccc(NC(=O)C2CC(=O)N(c3ccc4c(c3)OCCO4)C2)cc1S(=O)(=O)N(C)C (stereo not given)
 : 4	-3	0	-0.9	-5	0
CCCN(CCC)C(=S)NC(=O)c1ccc(-c2ccccc2)cc1
 : -9	-9	-15	-0.1	3	-12
CCCOc1ccc2[nH]cc(C(=O)O)c(=O)c2c1
 : -4	18	?	-0.9	-8	0

The whole of this part, repeating the preview:
The line under a structure holds: D2 PAM	Six1-Eya2 blk	TRPV1 potentiator	TRPML1 agonist	TRPML1 blocker	CtBP-E1A inh
CC(=O)Nc1cccc(OC(=O)N2CCOCC2)c1
 : -1	9	1	-0.2	-8	9
O=C1COc2ccc(C(=O)COC(=O)c3ccc(S(=O)(=O)C(F)F)cc3)cc2N1
 : 1	-4	6	-0.3	6	4
CC1CCCCN1S(=O)(=O)c1ccc(C(=O)Nc2nnc(-c3ccco3)o2)cc1 (stereo not given)
 : -2	-26	6	0.1	9	-18
COc1cc(S(=O)(=O)NCC2OCCc3ccccc32)ccc1-n1cnnn1 (stereo not given)
 : 8	2	3	-0.3	-1	-2
COc1ccc(NC(=O)c2cn(-c3ccccc3)nc2SC)cc1
 : -11	-3	10	1.6	25	·
O=C(COC(=O)/C=C/c1ccc(Cl)cc1Cl)Nc1cc(C(F)(F)F)ccc1N1CCOCC1
 : -27	5	-1	-0.1	-6	7
CC(C)c1ccc(-c2nc3ccccc3s2)cc1
 : -4	8	-1	-0.7	-2	32
Cn1cccc1C(C#N)c1ncc(C(F)(F)F)cc1Cl (stereo not given)
 : -5	-3	23	0.4	1	-5
CC1CCc2c(sc3ncn(CC(=O)N4CCCCC4)c(=O)c23)C1 (stereo not given)
 : -4	-1	0	-0.3	0	·
CCN(CC)S(=O)(=O)c1cccc(-c2nnc(SCC(=O)NC3CCCCCC3)n2N)c1
 : -14	6	5	-0.8	5	5
CC1(C(=O)NCC2CC2)CCN1C(=O)C1(c2ccccc2)CC1 (stereo not given)
 : -5	4	·	-0.7	·	3
O=C(Nc1cccc(Cl)c1)N1CCN2C(=O)c3ccccc3C12c1ccccc1 (stereo not given)
 : -6	-4	-13	1.9	54	11
Cc1ccc(NC(=O)C2CC(=O)N(c3ccc4c(c3)OCCO4)C2)cc1S(=O)(=O)N(C)C (stereo not given)
 : 4	-3	0	-0.9	-5	0
CCCN(CCC)C(=S)NC(=O)c1ccc(-c2ccccc2)cc1
 : -9	-9	-15	-0.1	3	-12
CCCOc1ccc2[nH]cc(C(=O)O)c(=O)c2c1
 : -4	18	?	-0.9	-8	0

(further entries)
The line under a structure holds: D2 PAM	Six1-Eya2 blk	TRPV1 potentiator	TRPML1 agonist	TRPML1 blocker	CtBP-E1A inh
Cc1ccc(NC(=O)CCl)cc1S(=O)(=O)N1CCCCCC1
 : 1	-1	1	5.6	35	-14
Cc1cc(Nc2ccc(N3CCC(C)CC3)cc2)n2ncnc2n1
 : 7	-1	5	5.2	23	-2
NC(=O)c1ccc(-n2nnnc2SCC(=O)Nc2ccc(F)cc2)cc1
 : -4	7	22	-0.8	10	-21
N#C/C(C(=O)NCc1ccccc1)=C1/SC(Cc2ccc(Cl)cc2)C(=O)N1c1ccccc1 (stereo not given)
 : -10	4	-2	3.7	4	·
Brc1ccc(OCCOc2cccc3cccnc23)cc1
 : 4	2	6	1.3	-24	-4
O=C(C[C@@H]1C/C=C/CC[C@@H](Cc2ccc(F)cc2)C(=O)O[C@H](c2ccccc2)CNC1=O)NCCO
 : 2	-5	·	4.0	19	0
CCCN1C2CCCC1CC(NC(=O)NC13CC4CC(CC(C4)C1)C3)C2 (stereo not given)
 : -2	-1	-8	·	·	·
CCc1ccc(N(C(C)=O)c2nc(CCl)cs2)cc1
 : -5	-3	-1	-0.4	-6	1
Cc1cc(C)nc(SCc2nnc(SCC(=O)N3CCCc4ccccc43)o2)n1
 : -3	3	-5	5.7	0	4
O=C(Nc1ccc(-n2cnnn2)cc1)c1cn2ccccc2n1
 : 1	7	15	0.5	49	-17
CCNc1nc(Cl)nc(NCCOc2ccc(C)cc2)n1
 : -21	-4	-1	0.7	22	5
Cc1ccc(NC(=O)c2ccc(OC(=O)c3ccco3)cc2)cc1
 : 6	1	-1	0.7	10	4
O/N=C1/CCc2nonc2/C1=N/O
 : -12	?	-3	0.8	-17	-18
Cc1sc2nc[nH]c(=O)c2c1-c1ccc(Cl)cc1
 : -8	-5	1	0.1	0	-12
CCOC(=O)CSc1nc2ccccc2c(=O)[nH]1
 : -7	6	10	-0.6	4	-17

More structures.
The line under a structure holds: D2 PAM	Six1-Eya2 blk	TRPV1 potentiator	TRPML1 agonist	TRPML1 blocker	CtBP-E1A inh
CN(C)C(=O)c1nc2ccc(Cl)cn2c1CN1CCCC(OCc2ccccc2)C1 (stereo not given)
 : 0	4	-7	0.4	-1	0
COCc1cc(C)nc(OCC(=O)N/N=C/c2ccc(-c3cc([N+](=O)[O-])ccc3C)o2)c1C#N
 : 20	-3	3	0.5	-2	-8
CC(=O)c1nc2ccccc2n1Cc1ccccc1
 : -4	5	6	1.6	8	·
O=C(c1cnn(-c2ccccc2)c1)c1cc(F)ccc1O
 : 2	-4	0	-0.4	-6	6
O=C(COc1ccccc1)N(CCc1ccccc1)c1nc(-c2ccc(F)cc2)cs1
 : -13	9	5	3.8	58	14
Clc1ccc(N2CCN(c3ccnc(Cl)n3)CC2)cc1
 : -1	-15	·	-0.6	4	0
O=C(NCc1ccc(S(=O)(=O)Nc2ccccc2Cl)s1)c1ccccc1
 : -2	-1	3	-0.4	-14	-5
Nc1nnc(-c2ccc([N+](=O)[O-])o2)s1
 : 0	10	·	1.8	-4	9
CC(C)C(NC(=O)c1ccc(Cl)cc1Cl)C(=O)N1CCN(S(=O)(=O)c2ccccc2)CC1 (stereo not given)
 : -12	-4	·	0.6	46	4
COc1cc(NC(=O)c2cc(CC(C)C)on2)c(OC)cc1Cl
 : -3	1	1	-0.2	-10	10
COc1cc2[nH]c3c(N4CCN(c5ccccn5)CC4)ncnc3c2cc1OC
 : 20	?	4	-1.2	-1	-29
CC(=O)N1CCN(c2ccc(NC(=O)c3ccc4ccccc4c3)cc2)CC1
 : -8	-22	-15	-1.4	2	-3
O=C(CSc1nnc(C2CC2)n1-c1ccccc1)NCCc1ccc(F)cc1
 : -30	4	-3	-0.2	-19	14
CCOC(=O)NC(=O)C(=CNc1cccc(C)c1)C(=O)NC(=O)OCC
 : -3	-1	6	-0.2	23	8
COc1ccc(S(=O)(=O)N2CCCOC2CNC(=O)C(=O)NCCCn2ccnc2)cc1 (stereo not given)
 : -3	8	12	-0.4	-14	3

Next part.
The line under a structure holds: D2 PAM	Six1-Eya2 blk	TRPV1 potentiator	TRPML1 agonist	TRPML1 blocker	CtBP-E1A inh
CN(Cc1ccco1)C(=O)CN1C(=O)NC2(CCCC2)C1=O
 : -4	3	·	-0.8	-13	3
Cc1ccc(/C=N/NC(=O)Cn2cncn2)cc1
 : 6	11	8	0.8	5	-4
Cc1nc2ccc(Cc3ccc4nc(C)[nH]c4c3)cc2[nH]1
 : -14	-3	6	-0.6	0	4
S=C(NNc1cccc(Cl)c1)NC1CCCCC1
 : -4	-6	-11	1.8	5	3
COc1cccc(OCCNc2cc(N3CCCCC3)ccc2[N+](=O)[O-])c1
 : -1	0	27	-0.6	-16	-4
O=C(NCc1ccc(Cl)cc1Cl)c1ccccn1
 : -16	9	-42	-0.5	3	5
CCc1ccc(OCC(=O)NC(NC(=S)Nc2ccccc2)C(Cl)(Cl)Cl)cc1 (stereo not given)
 : -11	4	-1	0.4	-1	8
CCC1CCCCN1CCCNC(=O)C1CCC(CNS(=O)(=O)c2c(C)cc(C)cc2C)CC1 (stereo not given)
 : -32	-15	7	-0.7	-6	-21
O=C1c2ccccc2S(=O)(=O)N1CCOc1ccccc1
 : -15	13	3	-0.6	-1	6
CCC(=N\NC(=O)COc1ccccc1OC)/C(CC)=N/NC(=O)COc1ccccc1OC
 : 3	7	3	0.3	-5	·
CCOc1ccc(C(C)NC(=O)c2cccs2)cc1OCC (stereo not given)
 : -4	2	·	1.8	10	4
Cc1nc(SCC(=O)NC2CCCCC2C)nc(C)c1C (stereo not given)
 : 3	3	·	1.2	30	10
COC(=O)CP(=O)(c1ccccc1)c1ccccc1
 : -7	14	-1	-0.6	-4	5
CC(=O)NC1=NN(C(C)=O)C(C)(c2cccs2)S1 (stereo not given)
 : 0	-20	-5	-1.2	-27	-10
CS(=O)(=O)c1cnc(-c2ccccc2)nc1-c1ccc(Cl)c(Cl)c1
 : 1	-8	-10	1.0	-23	3

Remaining list, next part.
The line under a structure holds: D2 PAM	Six1-Eya2 blk	TRPV1 potentiator	TRPML1 agonist	TRPML1 blocker	CtBP-E1A inh
O=C(Cn1cnc2c(NC(=O)OCc3ccccc3)ncnc21)NCCN1CCOCC1
 : -10	12	-8	-0.6	-6	6
O=C(Nc1nnc(CC2=CCCCC2)s1)Nc1ccccc1F
 : 0	-2	18	1.1	-8	6
Cc1ccc(C)n1NC(=O)c1ccccc1O
 : 3	-13	23	3.9	13	-8
CCc1ccccc1NC(=O)C1CCCN(c2nn3c(=O)cc(C)nc3s2)C1 (stereo not given)
 : 0	-8	-2	0.2	-1	-8
O=C(OCc1csc(Nc2ccccc2)n1)c1ccc(Cl)cc1
 : 0	-1	-4	1.2	-12	4
N#CC1(NC(=O)COC(=O)c2cc(=O)[nH]c3ccccc23)CCCCC1
 : -10	-14	13	0.2	-13	-18
OC(C#CCCN1CCCCC1)(c1ccccc1)C1CCCCC1 (stereo not given)
 : -14	1	·	0.1	-1	-7
CN1CCN(S(=O)(=O)c2cccc(S(=O)(=O)c3ccc(Cl)cc3)c2)CC1
 : -10	-1	3	1.7	19	4
CC(=O)c1ccc(N2CCN(C(=O)CCc3ccccc3)CC2)cc1
 : -3	-3	-27	0.0	24	-5
